bIAP inh = blocks bovine intestinal alkaline phosphatase activity | purified bovine IAP, CDP-star luminescence, 30 min | inhibition, % at 20 µM | 190,000 tested, under 10 active;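 active means over 50% inhibition of intestinal alkaline phosphatase at 20 µM in the single-dose screen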
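Assay system – bovine IAP enzyme · Quantity – bovine IAP at 1/65,000,000 final dilution · Detection – CDP-star luminescence signal · Times – 30 min reaction at room temperature · Also added – CDP-star substrate at 30 µM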
Lmaj promast = inhibitors of Leishmania major promastigote growth. AID 1063. Leishmania major promastigotes, resazurin fluorescence viability. inhibition, % at 10 µM. 200,000 tested, 9% active; in the data active means inhibition above about 50%;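 further: promastigotes grown with compound for 44 hours at 28 °C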
TNAP inh hi DEA = blocks human TNAP under high phosphate acceptor concentration; P05186; inhibition, % at 20 µM; purified TNAP, CDP-star luminescence, 1 M DEA; 200,000 tested, 0.03% active;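 active means over 50% inhibition of tissue-nonspecific alkaline phosphatase at 20 µM in the single-dose screen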;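 further: plate controls were DMSO wells for no effect and EDTA-quenched wells as full inhibition for full effect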
Target sequence (P05186 whole entry, looked up): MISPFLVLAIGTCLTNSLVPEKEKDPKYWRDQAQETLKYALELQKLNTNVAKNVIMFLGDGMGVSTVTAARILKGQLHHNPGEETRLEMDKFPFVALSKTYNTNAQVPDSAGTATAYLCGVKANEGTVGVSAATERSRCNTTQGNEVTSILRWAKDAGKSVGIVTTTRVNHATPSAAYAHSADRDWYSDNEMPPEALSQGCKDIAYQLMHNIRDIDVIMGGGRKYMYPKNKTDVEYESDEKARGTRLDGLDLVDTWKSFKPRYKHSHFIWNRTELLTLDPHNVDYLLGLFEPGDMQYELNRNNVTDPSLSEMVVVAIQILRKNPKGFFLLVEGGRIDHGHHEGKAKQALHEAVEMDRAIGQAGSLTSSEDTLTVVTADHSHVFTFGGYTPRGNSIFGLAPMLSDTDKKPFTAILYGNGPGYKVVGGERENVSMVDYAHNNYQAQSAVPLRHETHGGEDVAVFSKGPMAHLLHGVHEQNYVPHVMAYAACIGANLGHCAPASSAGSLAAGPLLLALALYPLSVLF
TNAP inh noacc = blocks human TNAP activity with no phosphate acceptor present | 200,000 tested, 0.26% active | P05186 | purified TNAP, CDP-star luminescence, 30 min | inhibition, % at 20 µM;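 active means tissue-nonspecific alkaline phosphatase inhibition above about 50% at 20 µM in the single-dose screen, limit read from the data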;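 further: 0% = DMSO negative control and 100% = EDTA positive control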
Diaphorase inh = counter-screen for diaphorase-based assays: diaphorase inhibitors and chemical oxidizers; diaphorase resazurin-to-resorufin fluorescence, NADH, 16 min; bacterial (C. kluyveri) enzyme, not human; 190,000 tested, 0.69% active; inhibition, % at 20 µM; AID 1217;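 active means primary screen inhibition at 20 µM above a set limit, cut at about 50% in these data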;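 further: plate controls were DMSO with full reaction for no effect and wells lacking NADH for full effect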
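Test system: Clostridium kluyveri diaphorase enzyme / Quantity: diaphorase at 0.14 U/mL in enzyme working solution / Incubation: 16-min room-temperature incubation before reading / Benchmarks: NADH-free wells as positive control, DMSO-only neutral wells / Signal: resorufin fluorescence 544/590 nm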
TNAP act hi DEA = activators of human TNAP at high phosphate acceptor concentration | purified TNAP, CDP-star luminescence, 1 M DEA, 30 min; stronger effect = higher value; 0 = EDTA background, 1 = DMSO-only activity | activation factor at 20 µM | P05186 | AID 1136 | 200,000 tested, under 10 active;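 active means activation factor at least 2 at 20 µM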
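system = human TNAP | amount = enzyme diluted 1/800 final | reagent = 100 µM CDP-star substrate | signal = luminescent substrate turnover signal | dosing = one dose, 20 µM | benchmarks = EDTA negative control, DMSO positive control | measure = activation factor | timing = 30 min reaction, room temperature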
bIAP activator = intestinal alkaline phosphatase (bovine) activation. activation factor at 20 µM. 200,000 tested, 0.17% active. AID 1016. purified bovine IAP, CDP-star luminescence, 30 min; stronger effect = higher value; fold of DMSO-control signal, blank-subtracted;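 active means activation factor of 2 or more at 20 µM, a signal rise over negative controls twice the positive control's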
* hit, by the source's call. Not all compounds are listed; count on the stated rates, not on these rows.

Labels used below – A = bIAP inh; B = Lmaj promast; C = TNAP inh hi DEA; D = TNAP inh noacc; E = Diaphorase inh; F = TNAP act hi DEA; G = bIAP activator
1. CSc1nc(Cl)c(C#N)c(-c2ccc(C)cc2)n1
  A = 5.0	B = -1.8	C = -4.5	D = -12.6	E = 8.2	F = 1	G = 0.9

2. O=C(c1ccco1)N1CCN(S(=O)(=O)c2ccc3[nH]c(=O)oc3c2)CC1
  A = 1.5	B = -8.6	C = -0.6	D = -3.0	E = 7.5	F = 1	G = 1

3. Cc1ccc(CNc2ccc(O)cc2)cc1
  A = 22.3	B = 98.8*	C = 6.2	D = 0.4	E = 52.9*	F = 0.9	G = 0.8

4. CCOc1ccc(C(=O)N2CCCC2C(=O)O)cc1 (configuration not stated)
  A = 1.6	B = -0.9	C = 0.3	D = -2.9	E = 2.1	F = 1	G = 1

5. Cc1cc(C)n(-c2nc3c(c(=O)[nH]c(=O)n3C)n2C(C)C)n1
  A = 2.1	B = 0.6	C = -2.8	D = -10.7	E = -7.7	F = 1	G = 1

6. O=C(Nc1cccc(C(F)(F)F)c1)C1CCCN(S(=O)(=O)c2cnc[nH]2)C1 (configuration not stated)
  A = -11.5	B = -4.3	C = 2.4	D = 0.3	E = 1.2	F = 1	G = 1.1

7. O=S(=O)(c1ccccc1)n1ccc2cccnc21
  A = 0.2	B = -0.7	C = -8.4	D = -4.7	E = 18.6	F = 1.1	G = 1

8. O=C(c1ccc(Cl)c(S(=O)(=O)NCc2ccccc2)c1)N1CCN(c2ccccn2)CC1
  A = 1.2	B = 4.7	C = -4.8	D = 6.1	E = 4.8	F = 1	G = 1

9. Nc1nc(-c2ccco2)nn1C(=O)c1ccc(Cl)cc1
  A = 0.9	B = -5.3	C = -5.1	D = -1.6	E = 17.3	F = 1.1	G = 1

10. CC(C)Nc1cc(N2CCCC2)ccc1[N+](=O)[O-]
  A = 14.4	B = -0.9	C = 17.3	D = 16.1	E = 21.4	F = 0.8	G = 0.9

11. CCCC(C)NC1=NCCCCC1 (configuration not stated)
  A = -0.2	B = -5.2	C = 0.0	D = -8.3	E = 0.5	F = 1	G = 1

12. CC(=O)N1CCN(c2nc3cc4c(cc3nc2NS(=O)(=O)c2ccccc2)OCCO4)CC1
  A = 3.6	B = 5.9	C = -1.9	D = -10.8	E = 19.4	F = 1	G = 1

13. COC(=O)c1cc(Cl)c(NC(=O)c2cc3ccccc3o2)cc1OC
  A = -1.2	B = 8.1	C = 5.4	D = 14.6	E = -8.5	F = 0.9	G = 1

14. Cc1nonc1NC(=O)Nc1cccnc1
  A = -2.5	B = 2.5	C = -2.9	D = -0.4	E = -0.1	F = 1	G = 1

15. Cn1c(CN2CCOCC2)nnc1SCC(N)=O
  A = 1.4	B = -3.0	C = 1.5	D = -4.2	E = 11.4	F = 1	G = 1

The list goes on.
Labels used below – A = bIAP inh; B = Lmaj promast; C = TNAP inh hi DEA; D = TNAP inh noacc; E = Diaphorase inh; F = TNAP act hi DEA; G = bIAP activator
16. Cc1ccc(-n2c([O-])nc(-[n+]3ccccc3)c2C=O)cc1
  A = 4.7	B = -7.7	C = 3.5	D = -2.7	E = -10.8	F = 1	G = 1

17. O=C(CC1SC(N2CCCCC2)=NC1=O)Nc1cccc(C(=O)O)c1 (configuration not stated)
  A = 3.1	B = -8.1	C = -6.3	D = -2.3	E = 3.4	F = 1.1	G = 1

18. CCOC(=O)CCCNC(=O)c1cncc(Br)c1
  A = 5.3	B = -1.4	C = -6.0	D = -4.9	E = 4.6	F = 1.1	G = 0.9

19. O=C(NCC12CC3CC(CC(C3)C1)C2)c1cc2n(n1)C(C(F)(F)F)CC(c1ccco1)N2 (configuration not stated)
  A = -1.8	B = 30.9	C = -1.7	D = -3.1	E = 10.4	F = 1	G = 1

20. CCCNC(=O)N1CCC(C(=O)c2cccc(F)c2)CC1
  A = 9.0	B = -8.1	C = 0.4	D = -6.7	E = 15.7	F = 1	G = 0.9

21. COc1ccccc1NC(=O)C1=C(C)Nc2nnnn2C1c1cc(Br)ccc1OC (configuration not stated)
  A = -5.4	B = 96.7*	C = -5.5	D = -7.6	E = 16.4	F = 1.1	G = 1.1

22. COc1ccc(NC(=O)N(C2CCCCC2)C(C)c2cccnc2)c(OC)c1 (configuration not stated)
  A = 5.7	B = 81.7*	C = -2.6	D = -8.8	E = 15.9	F = 1	G = 0.9

23. COc1ccc(C2=NCC(CSc3nccc(=O)[nH]3)S2)cc1 (configuration not stated)
  A = 0.9	B = -8.5	C = -3.2	D = -5.6	E = 7.8	F = 1	G = 1

24. CCN(CC)CCCN1C(=O)C(O)=C(C(=O)c2cc3cccc(OC)c3o2)C1c1ccncc1 (configuration not stated)
  A = 3.3	B = -4.2	C = -0.3	D = -4.5	E = 14.8	F = 1	G = 1

25. CCOc1ccc(-c2c[n+](=O)c3c(n2[O-])CCCC3)c(OCC)c1
  A = 2.9	B = -3.6	C = -4.4	D = -12.1	E = 10.4	F = 1	G = 1

26. COCCCn1c(SCc2nnc(-c3ccccc3)o2)nc2sc3c(c2c1=O)CCC3
  A = -1.2	B = -0.5	C = -4.7	D = -0.8	E = 22.9	F = 1	G = 1

27. Cc1ccccc1CSCCNC(=O)CSCc1ccc([N+](=O)[O-])cc1
  A = 21.6	B = -3.2	C = -2.4	D = -3.3	E = 32.8	F = 1	G = 0.8

28. Cc1ccc(-c2csc3ncnc(SCC(=O)c4ccc5c(c4)OCCO5)c23)cc1
  A = -1.9	B = -5.0	C = -4.5	D = -8.1	E = 24.3	F = 1	G = 1

29. O=c1nc(-c2ccccc2)n(-c2ccccc2)c2ncccc12
  A = 1.0	B = -4.1	C = -4.8	D = 0.8	E = 0.0	F = 1	G = 1

30. CCOc1c(Cl)cc(Cl)cc1CNCCNCCO
  A = 0.0	B = 15.6	C = 0.3	D = 7.7	E = 2.8	F = 1	G = 1

One compound at a time, from the list above. Screens in order: bIAP inh | Lmaj promast | TNAP inh hi DEA | TNAP inh noacc | Diaphorase inh | TNAP act hi DEA | bIAP activator
CCCNC(=O)N1CCC(C(=O)c2cccc(F)c2)CC1 as listed: 9.0 | -8.1 | 0.4 | -6.7 | 15.7 | 1 | 0.9
Cc1ccc(-c2csc3ncnc(SCC(=O)c4ccc5c(c4)OCCO5)c23)cc1 as listed: -1.9 | -5.0 | -4.5 | -8.1 | 24.3 | 1 | 1

Further results.
Labels used below – A = bIAP inh; B = Lmaj promast; C = TNAP inh hi DEA; D = TNAP inh noacc; E = Diaphorase inh; F = TNAP act hi DEA; G = bIAP activator
31. COc1ccc(Oc2nc(SC)nc3ccsc23)cc1
  A = 7.7	B = -3.2	C = -0.4	D = -7.1	E = 10.6	F = 1	G = 0.9

32. O=C(COc1ccc(OCc2ccccc2)cc1)NC1CCOC1=O (configuration not stated)
  A = 3.1	B = -3.8	C = 0.0	D = -2.2	E = 4.7	F = 1	G = 1

33. CCC(C)C(=O)Nc1nc(-c2ccc3c(c2)NC(=O)CO3)cs1 (configuration not stated)
  A = -1.3	B = 13.1	C = 0.1	D = -2.0	E = 10.8	F = 1	G = 1

34. CCN1C(=O)CC(NNC(=O)c2ccc(Cl)cc2)C1=O (configuration not stated)
  A = 0.3	B = -4.3	C = -1.0	D = -4.9	E = 10.2	F = 1	G = 1

35. CCC(C)(C)NC(=O)C(c1ccc(C)o1)N(Cc1cccs1)C(=O)Cn1nnc2ccccc21 (configuration not stated)
  A = 43.4	B = 36.2	C = -17.5	D = -30.9	E = 4.3	F = 1.2	G = 0.6

36. Cc1nc(NCC2CCCO2)[nH]c(=O)c1CCC(C)C (configuration not stated)
  A = 5.9	B = 1.9	C = -3.3	D = -7.6	E = 9.8	F = 1	G = 0.9

37. CCOC(=O)CN1C(=O)S/C(=C/c2ccc(N3CCCCC3)o2)C1=O
  A = 3.8	B = -3.9	C = 2.6	D = -4.0	E = 13.2	F = 1	G = 1

38. CC(C)CNc1cc(N2CCCC2)ccc1[N+](=O)[O-]
  A = 21.9	B = 9.2	C = 10.9	D = 7.9	E = 20.7	F = 0.9	G = 0.8

39. Cn1nc(C(F)(F)F)c(C(=O)Nc2cccc(Cl)c2)c1Cl
  A = -1.5	B = 0.2	C = -0.6	D = -5.8	E = 15.6	F = 1	G = 1

By substructure, those above with two or more sulfur atoms (5)
Labels used below – A = bIAP inh; B = Lmaj promast; C = TNAP inh hi DEA; D = TNAP inh noacc; E = Diaphorase inh; F = TNAP act hi DEA; G = bIAP activator
23. COc1ccc(C2=NCC(CSc3nccc(=O)[nH]3)S2)cc1 (configuration not stated)
  A = 0.9	B = -8.5	C = -3.2	D = -5.6	E = 7.8	F = 1	G = 1

26. COCCCn1c(SCc2nnc(-c3ccccc3)o2)nc2sc3c(c2c1=O)CCC3
  A = -1.2	B = -0.5	C = -4.7	D = -0.8	E = 22.9	F = 1	G = 1

27. Cc1ccccc1CSCCNC(=O)CSCc1ccc([N+](=O)[O-])cc1
  A = 21.6	B = -3.2	C = -2.4	D = -3.3	E = 32.8	F = 1	G = 0.8

28. Cc1ccc(-c2csc3ncnc(SCC(=O)c4ccc5c(c4)OCCO5)c23)cc1
  A = -1.9	B = -5.0	C = -4.5	D = -8.1	E = 24.3	F = 1	G = 1

31. COc1ccc(Oc2nc(SC)nc3ccsc23)cc1
  A = 7.7	B = -3.2	C = -0.4	D = -7.1	E = 10.6	F = 1	G = 0.9

By substructure: the entries above containing bromine (2)
Labels used below – A = bIAP inh; B = Lmaj promast; C = TNAP inh hi DEA; D = TNAP inh noacc; E = Diaphorase inh; F = TNAP act hi DEA; G = bIAP activator
18. CCOC(=O)CCCNC(=O)c1cncc(Br)c1
  A = 5.3	B = -1.4	C = -6.0	D = -4.9	E = 4.6	F = 1.1	G = 0.9

21. COc1ccccc1NC(=O)C1=C(C)Nc2nnnn2C1c1cc(Br)ccc1OC (configuration not stated)
  A = -5.4	B = 96.7*	C = -5.5	D = -7.6	E = 16.4	F = 1.1	G = 1.1

High-throughput results (PubChem BioAssay)
